# Screening results deposited in PubChem by several laboratories.
# Env fusion inh: inhibitors of HIV Env-mediated cell fusion; inhibition, % at 12.3 µM; hit rate 1.1% among 360,000; HeLa-JRFL Env/CEM21 cell fusion, luciferase;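 active = mean replicate inhibition score of at least 50 and every replicate individually at or above 50; inconclusive = only one of the two criteria met; inactive = mean below 50 and not all replicates reaching 50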;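 also: 0% = plate neutral controls and 100% = maraviroc near 300 nM; one replicate is shown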
# CSC inhib: cancer stem cell inhibition; cancer stem cell-like cells viability, luminescence; inhibition, % at 7.5 µM; hit rate 1.1% among 300,000; AID 2717;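 active = mean at 75% or more and at least half the replicates too; inconclusive = mean and replicates disagree; tested in HMLE shEcad cells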;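 also: 0% = median of negative and 100% = median of positive control wells; the first replicate is given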
# Yeast UUG start: alters start codon recognition fidelity in yeast | S. cerevisiae UUG-firefly luciferase reporter, luminescence/redox ratio | activity score, % at 18.7 µM | hit rate 0.13% among 350,000;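 active = replicate mean at a twofold rise or more, about +100% in these data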;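 also: firefly luciferase made from a UUG start codon reports start codon fidelity; reporter light over untreated wells divided by growth signal over untreated wells; some hits fall short of that in this replicate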
# MT1-MMP act inh: blocks activation of human MT1-MMP | AID 651647 | HT1080 RFP-PRO-GFP cells, GFP/RFP ratio fluorescence, overnight; percent of plate control window, DMSO zero | hit rate 0.061% among 360,000 | GFP/RFP ratio change, % at 20 µM;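 active = GFP/RFP ratio change of at least 30% with cell ATP level not reduced by more than half and red fluorescence within 50% of control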; also: strong numbers were not always called active
#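 system = RFP-PRO-GFP reporter HT1080 cells | dosing = 20 µM single dose, 1% DMSO | timing = overnight cell settling, then overnight compound exposure, 37 °C, 5% CO2 | read-out basis = GFP/RFP fluorescence ratio | controls = DMSO and RFP-L50D-GFP cell wells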
# Rce1 inh: inhibitors of yeast Ras-converting enzyme; AID 2563; yeast membranes, quenched prenylated peptide cleavage fluorescence; calls only; hit rate 0.27% among 290,000; Q03530;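 active = fall in fluorescence gain of 50% or more versus controls, with final raw signal at or below 3038400; inconclusive = same 50% fall but final raw signal above 3038400; inactive = fall in fluorescence gain under 50%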;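 also: plate controls were neutral control wells for no effect and wells lacking membranes for full effect; tested at 10 µM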
# PABP polyA inh: blocks human PABP binding to poly(A) RNA; fluorescence polarization; inhibition, % at 35 µM; hit rate 1% among 290,000; AID 2014;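 active = 50% or more with normal probe brightness, or confirmed in later tests; inconclusive = above 50% with abnormal brightness, or retests that disagree; inactive = below 50% or failed in later tests; about a fifth of its hits are not listed in these tables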;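 also: calls also rest on retests at 20 µM and on dose response follow-up; controls were probe without protein and protein plus probe with vehicle; some compounds called inactive have numbers as strong as hits; many hits fall short of the cut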
# Target sequence (P11940 whole entry, looked up): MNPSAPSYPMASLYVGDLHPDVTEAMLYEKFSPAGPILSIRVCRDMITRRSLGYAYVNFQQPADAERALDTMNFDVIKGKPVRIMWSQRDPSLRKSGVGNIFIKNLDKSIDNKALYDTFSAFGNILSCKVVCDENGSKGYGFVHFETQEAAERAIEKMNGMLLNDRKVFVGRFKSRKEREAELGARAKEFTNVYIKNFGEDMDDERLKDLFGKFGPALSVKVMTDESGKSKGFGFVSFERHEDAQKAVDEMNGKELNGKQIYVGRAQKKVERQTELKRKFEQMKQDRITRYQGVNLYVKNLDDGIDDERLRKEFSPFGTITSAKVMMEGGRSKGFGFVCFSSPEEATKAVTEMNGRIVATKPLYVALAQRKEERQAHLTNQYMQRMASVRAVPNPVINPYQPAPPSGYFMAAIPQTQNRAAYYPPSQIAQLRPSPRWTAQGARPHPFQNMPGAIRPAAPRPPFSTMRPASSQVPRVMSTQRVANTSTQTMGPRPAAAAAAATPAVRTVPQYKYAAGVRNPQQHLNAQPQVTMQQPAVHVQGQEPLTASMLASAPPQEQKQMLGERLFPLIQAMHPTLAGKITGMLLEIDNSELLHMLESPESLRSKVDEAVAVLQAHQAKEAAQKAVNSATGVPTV
# eIF4H inh: inhibitors of RNA binding by human eIF4H; Q15056; eIF4H fluorescence polarization binding assay; inhibition, % at 35 µM; hit rate 0.94% among 290,000; AID 2012;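 active = 50% or more with normal probe brightness, or confirmed in later tests; inconclusive = above 50% with abnormal brightness, or retests that disagree; inactive = below 50% or failed in later tests; about a fifth of its hits are not listed in these tables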;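 also: calls also rest on retests at 20 µM and on dose response follow-up; 0% = protein and probe with vehicle and 100% = probe without protein; strong numbers were not always called active; many hits fall short of the cut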
# eIF4H inh retest: further read-out of eIF4H inh, marked with its call; inhibition, %; compound at 20 µM; confirmation average;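 mean of two retest wells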
# PABP polyA inh retest: recorded beside PABP polyA inh, whose call it bears; inhibition, %; compound at 20 µM; confirmation repeats;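 mean of two retest wells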
# MT1-MMP act inh RFP: recorded beside MT1-MMP act inh, whose call it bears; RFP signal change, %; measured here: RFP expression control read;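 0 = vehicle wells; hits needed this value within 50% of zero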
# Starred values were filed as active, the others as inactive; i = inactive; ? = inconclusive; . = no result given; + = active, no number; [ ] = dose if it differs, or a comment. This is a subset. The share of hits here may be higher or lower than overall.
SMILES,Env fusion inh,CSC inhib,Yeast UUG start,MT1-MMP act inh,MT1-MMP act inh RFP,Rce1 inh,PABP polyA inh,eIF4H inh,others
Cc1ccc(NCC(=O)N/N=C/c2ccc(OC(=O)c3ccco3)cc2)cc1,.,-13,-2,1,-4,i,-3,25,
O=C(COC(=O)c1ccco1)NCc1ccccc1Cl,-12,-9,-8,0,-2,i,8,3,
O=C1CC(N2CCCCCC2)C(=O)N1c1ccc(F)cc1 (stereo not drawn),-9,-12,.,0,4,i,-8,-8,
CC(C)COc1ccc(-c2nnn(CC(=O)N3CCCC3)n2)cc1,-11,0,-9,3,-3,i,-4,-1,
Cc1cccc(NC(=O)c2ccc(NC(=O)c3ccccc3Br)cc2)c1,14,-1,-28,4,-8,i,.,.,
O=C(Cc1cccc2ccccc12)Nc1nc2ccccc2[nH]1,.,3,.,-2,-6,i,-4,-5,
CCOc1cccc(C(=O)Nc2cccc(-c3nnc(-c4ccccc4)o3)c2)c1,.,.,-12,-4,-17,i,-7,-2,
COc1cccc(NC(=O)Nc2nc(SC(C)(C)C)ns2)c1,21,96*,-16,10,-31,i,23,3,
CNc1cncc(-c2cnn(CC(C)C)c2)n1,-1,.,-16,3,1,.,.,.,
O=C(N/N=C/c1cn(-c2cccs2)nc1-c1ccccc1)c1ccccc1Br,-31,83*,.,3,-2,i,-5,-13,
CCOc1ccc(CNS(=O)(=O)c2ccc3c(c2)CC(=O)N3C)cc1,-29,2,-9,-1,4,i,-1,2,
CCOC(=O)C1(Cc2cccc(OC)c2)CCN(Cc2cnc(SC)nc2)CC1,25,-3,.,0,3,i,-2,-3,
NC(=O)COC(=O)c1c2c(nc3ccccc13)CCC2,-5,-2,.,-8,2,i,1,82,eIF4H inh retest=5;PABP polyA inh retest=-5
Cc1ccc(-n2nc(C)c(C3(O)C(=O)N(C(C)C)c4ccccc43)c2N)cc1 (stereo not drawn),-6,-3,.,-1,0,i,2,4,
O=C(CN1C(=O)C2CC=CCC2C1=O)NC1=NCCS1 (stereo not drawn),-10,-2,-21,0,2,i,11,-2,
CC(C)CNC(=S)N1CCN(C)CC1,-24,-13,-17,-2,-2,i,11,6,
CN1CCN(C(=O)C2=C[C@@H](C(C)(C)C)C[C@@H](OCc3ccc(CO)cc3)O2)CC1,10,-10,-9,-1,4,i,0,10,
COC(=O)c1ccc(NC(=O)CN2CCC(NC(=O)c3ccccc3F)CC2)cc1,-5,.,0,4,-5,.,.,.,
COc1ccc(Nc2nnc(SCC(=O)N3CCCC3)s2)cc1,.,-4,-9,9,1,i,-6,1,
CC(C)NC(=O)CSc1nnc(-c2ccco2)n1N,0,-13,-9,-1,-3,i,-2,-9,
N/C(Cc1ccc(Cl)cc1Cl)=N\OC(=O)Cc1ccccc1,-7,-5,-4,-3,2,i,12,-5,
COc1ccc(Cl)cc1NC(=O)CN1C(=O)NC2(CCCC2)C1=O,9,-6,7,1,5,i,10,5,
O=C(NCN1CCCCC1)c1cccnc1,-6,-11,-18,-2,3,i,3,-7,
COc1ccc2cc(-c3[nH]ncc3CN3CCCN(c4ccccc4)CC3)ccc2c1,6,8,.,0,3,i,-16,-8,
CCOC(=O)N1CCC(NC(=O)c2ccc(CS(=O)c3cccc(C)c3)o2)CC1 (stereo not drawn),3,-2,-7,2,2,i,11,-8,
# Next compounds
SMILES,Env fusion inh,CSC inhib,Yeast UUG start,MT1-MMP act inh,MT1-MMP act inh RFP,Rce1 inh,PABP polyA inh,eIF4H inh,others
CC(C)c1ccc(S(=O)(=O)N2CCN(CC(=O)c3ccc(O)c(O)c3)CC2)cc1,0,41,8,3,4,i,0,-22,
O=C(CN1C(=O)c2ccccc2S1(=O)=O)NCc1ccc(F)cc1,4,-10,-10,-1,4,i,-2,-4,
N#CCc1ccc(C(=O)c2ccccc2F)s1,.,0,-3,1,3,i,-7,-2,
C#CCN1N=C(c2ccc(C)cc2)CSC1=O,-1,-10,2,4,-1,i,.,.,
C[n+]1c2n(c3ccccc31)N=C(c1cc(C(C)(C)C)c(O)c(C(C)(C)C)c1)CS2,?,-14,.,-24,-35,+,0,-9,
Cc1ccc(C)c(OCC(=O)N2CCOCC2)c1,-21,-11,-17,0,5,i,5,-9,
CC(C)CNC(=O)c1ccccc1NC(=O)CN(c1ccc2c(c1)OCCO2)S(C)(=O)=O,.,2,-16,18,-1,i,-4,6,
O=C(CC1CC1)N[C@@H]1CC[C@@H](CCNS(=O)(=O)c2ccc(F)cc2)O[C@@H]1CO,21[16.7 µM],.,4,2,6,.,.,.,
Cc1ccc(-n2ncc3c(=O)n(CC(=O)NC4CCCC4)cnc32)cc1C,.,-25,-10,-1,0,i,3,0,
COc1ccccc1NC(=O)CCc1nc(-c2cccs2)no1,0,-11,-4,5,0,i,4,-6,
N/C(=N\OC(=O)c1ccc2c(c1)OCO2)c1cccnc1,-9,-4,.,1,0,i,1,5,
CN(C)c1ccc(CN(C(=O)COc2ccc(Br)cc2)C2CCS(=O)(=O)C2)cc1 (stereo not drawn),7,-6,-10,0,2,i,4,-7,
CC(=O)c1c(C)[nH]c(C(=O)OCC(=O)Nc2sc3c(c2C#N)CCCC3)c1C,34,7,.,-11,-25,i,12,-2,
CN1C(=O)N(C)c2ccc(Br)c3cccc1c23,15,-1,-12,-4,-3,i,8,-4,
CN1c2ccccc2Oc2c(c(=O)n(C)c(=O)n2C)C1c1cccc([N+](=O)[O-])c1 (stereo not drawn),.,3,-5,-5,-3,i,5,-1,
CCn1nc(C)c(CNC(=O)C2CCC(=O)N(Cc3cccc(F)c3)C2)c1C (stereo not drawn),-29,-3,-18,1,4,i,8,0,
Nc1nc(SCc2ccccc2)c2[nH]cnc2n1,-4,12,-11,1,0,i,-1,0,
Cc1ccccc1-c1nc(S(=O)(=O)c2ccccc2)c(NCCCN2CCOCC2)o1,.,-18,8,3,4,.,.,.,
O=S(=O)(NCC(c1cccnc1)N1CCOCC1)c1ccc(Cl)cc1 (stereo not drawn),-4,-4,-14,0,10,i,-6,-21,
CN(CCOC(=O)CN1C(=O)c2ccccc2C1=O)C1=NS(=O)(=O)c2ccccc21,.,-6,.,.,.,i,-10,1,
Cc1cc(NC(=O)C2CC(c3ccc(Cl)cc3)=NO2)no1 (stereo not drawn),.,.,-11,14,4,i,-9,-13,
Cc1[nH]c2ccccc2c1/C=N/Nc1cccc(C(=O)O)c1,-64,4,.,-1,1,i,16,7,
O=C(Nc1ccc(Br)cc1)Nn1cnnc1,-1,-1,-8,5,3,i,4,-6,
Cc1ccc(OCC(=O)N(Cc2cccs2)C2CCS(=O)(=O)C2)cc1C (stereo not drawn),9,2,.,3,1,i,5,-1,
O=C(NCc1ccccc1)c1ccc2c(=O)n(CCCN3CCCC3=O)c(=S)[nH]c2c1,-52,8,-21,2,-1,i,2,-2,
# (more compounds)
SMILES,Env fusion inh,CSC inhib,Yeast UUG start,MT1-MMP act inh,MT1-MMP act inh RFP,Rce1 inh,PABP polyA inh,eIF4H inh,others
CCOC(=O)c1cccc(NC(=O)c2ccc3c(c2)OCO3)c1,-55,19,-4,1,0,i,4,1,
CC(=O)NS(=O)(=O)c1ccc(Nc2ccc([N+](=O)[O-])c3nonc23)cc1,13,8,.,-45,2,i,55,91,eIF4H inh retest=-6;PABP polyA inh retest=33
CCCCn1c(SCC(=O)N2CCOCC2)nnc1-c1ccoc1C,-62,10,-15,0,4,i,5,5,
COc1ccc(N2CCN(Cc3nc4c(c(=O)n(C)c(=O)n4C)n3C(C)C(C)=O)CC2)cc1 (stereo not drawn),-104,6,-10,4,-3,i,-6,6,
CCN(CC)S(=O)(=O)c1ccc(/C=C/C(=O)OCC(=O)NCc2ccco2)cc1,.,-11,-9,3,-1,.,.,.,
Cc1ccc(S(=O)(=O)Nc2nc3ccc(S(C)(=O)=O)cc3s2)cc1,-21,-6,-13,-2,2,i,-7,-6,
Cc1cc(C)n(CCC(=O)N/N=C/c2ccc(O)cc2O)n1,11,12,-11,2,3,i,-8,9,
CCOC(=O)c1c(NC(=O)CSc2nnnn2-c2ccc3c(c2)OCO3)sc(C)c1C,.,-2,-13,5,-1,i,-4,-3,
COc1cc(/C=C/C(=O)O)cc(S(=O)(=O)N2CCc3ccccc32)c1OC,9,-15,2,-1,4,i,-1,-1,
O=[N+]([O-])c1cccc(S(=O)(=O)Nc2ccc(S(=O)(=O)N3CCCC3)cc2)c1,-1,5,-2,1,0,i,9,-1,
O=C(Cc1c(F)cccc1Cl)Nc1ncc([N+](=O)[O-])s1,-29,19,.,5,-21,i,11,1,
COCCn1c(C(C)C)nc2ccccc21,7,-6,.,-3,-3,i,-4,8,
COc1ccc(N2CSC3=C(C#N)C(c4cc(OC)ccc4OC)CC(=O)N3C2)c(OC)c1 (stereo not drawn),.,-2,-10,-1,6,i,52,19,eIF4H inh retest=23;PABP polyA inh retest=25
Cc1nc2cc(C(=O)N3c4ccccc4CC3C)ccc2s1 (stereo not drawn),2,56,-4,1,-7,i,-3,-7,
Cc1nc(NCCCN2CCOCC2)c2oc3ccccc3c2n1,.,-7,-8,5,2,i,7,10,
C/C=C/CSc1nc2c(c(=O)[nH]c(=O)n2C)n1Cc1ccc(C)cc1,-16,2,-10,1,-6,i,8,0,
Nc1c(-c2ccccc2)cnn1-c1cccc(C(F)(F)F)c1,.,-7,-25,3,1,i,-2,-8,
Cc1nc2ccccc2c2c1C(=O)N(c1ccc(C(=O)O)cc1)C2=O,8,9,.,0,10,i,-1,5,
CCOCCCNC(=O)c1c[nH]c2ccc(S(=O)(=O)Nc3cccc(OC)c3)cc2c1=O,9,26,-13,-8,-7,i,2,9,
CCCNC(=O)c1ccccc1SCc1c(C)noc1C,-9,-12,-15,3,0,i,-5,-7,
O=S(=O)(NC(=NC1CCCCC1)c1ccccc1)c1ccc(F)cc1,1,-5,10,-1,1,i,-2,10,
COc1cc(NC(=O)CN(C)C2CCCCC2)c(C)cc1[N+](=O)[O-],.,28,.,-6,0,i,5,2,
CCN(CC(=O)Nc1ccc2c(c1)OCCO2)C(=O)/C=C/c1cccc(C(F)(F)F)c1,.,5,-13,0,-1,.,.,.,
Cc1ccc(-c2csc3nc4cc(C(N)=O)ccc4c(=O)n23)cc1,-5,8,3,1,-1,i,28,21,
O=C(NCC1CCCO1)c1ccc2c(=O)n(Cc3cccc(Br)c3)c(=S)[nH]c2c1 (stereo not drawn),14,22,-12,-1,-9,i,-16,7,
Cc1ccc(NC(=O)CCNS(=O)(=O)c2ccc3c(c2)oc(=O)n3C)c(C)c1,.,-7,.,1,2,i,6,-12,
CCOc1ccc(NC(=O)CSc2nc(C)cc(C)n2)cc1,-7,-1,-9,5,-2,i,-7,3,
COC(=O)CSc1nnc(CNS(=O)(=O)c2ccc(Cl)cc2)n1C,.,.,-16,-3,0,i,2,-4,
COC(=O)C1=CN(c2ccc(OC)cc2)C=C(C(=O)OC)C1c1ccc([N+](=O)[O-])cc1,4,6,4,-4,-5,i,6,5,
CCOC(=O)C1(CCOc2ccccc2)CCN(Cc2ccc(C#CCCO)cc2)CC1,7,-5,-4,5,-6,i,-2,-5,

# Of the compounds above, 2 contain a CF3 group.
SMILES,Env fusion inh,CSC inhib,Yeast UUG start,MT1-MMP act inh,MT1-MMP act inh RFP,Rce1 inh,PABP polyA inh,eIF4H inh,others
Nc1c(-c2ccccc2)cnn1-c1cccc(C(F)(F)F)c1,.,-7,-25,3,1,i,-2,-8,
CCN(CC(=O)Nc1ccc2c(c1)OCCO2)C(=O)/C=C/c1cccc(C(F)(F)F)c1,.,5,-13,0,-1,.,.,.,
